# Cruzain inh noDet = qHTS Assay for Promiscuous and Specific Inhibitors of Cruzain (without detergent); actives 2.3% (n = 200,000); Potency, µM, without a hit: max response, negative = inhibition, most hits filed as inhibitors; purified cruzain, Z-FR-AMC fluorescence, no detergent; Cruzipain (Trypanosoma cruzi), P25779; AID 1476, 2009;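 further: plate controls were enzyme without inhibitor for no effect and buffer without enzyme for full effect; nearly all actives have a fitted effect of over 40% in size; top concentration of the series not given in the record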
# Target sequence (P25779 123-467 limits assumed): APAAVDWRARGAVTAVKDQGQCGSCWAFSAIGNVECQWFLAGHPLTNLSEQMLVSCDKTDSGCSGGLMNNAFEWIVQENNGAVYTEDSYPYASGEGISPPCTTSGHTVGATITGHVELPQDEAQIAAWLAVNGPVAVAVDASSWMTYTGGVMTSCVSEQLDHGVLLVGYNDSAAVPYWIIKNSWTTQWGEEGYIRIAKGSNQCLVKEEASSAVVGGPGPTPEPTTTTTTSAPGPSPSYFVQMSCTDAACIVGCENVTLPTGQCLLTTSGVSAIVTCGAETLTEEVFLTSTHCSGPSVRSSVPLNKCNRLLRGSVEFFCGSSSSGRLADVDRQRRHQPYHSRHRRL
#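 Detergent-free condition (0.00005% Triton X-100) in acetate buffer pH 5.5 with DTT. 1.5 nM enzyme and compound were pre-mixed 15 min, then 2 uM Z-FR-AMC substrate added; reaction progress from fluorescence change between first and third reads (60 s).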
# SARS PLpro yeast = qHTS of Yeast-based Assay for SARS-CoV PLP; AID 485353, 2010; Potency, µM (doses to about 32.9 µM), inactives show top-dose activity, positive = growth rescue; actives 0.19% (n = 330,000); S. cerevisiae expressing SARS-CoV PLpro, growth rescue; control for the full effect not named in the record; active means well fitted rising curve with a large enough effect; inconclusive means small, poorly fitted or top-dose-only effect; inactive means no such curve, though single readings can be large or run the other way; further: 0% is about no effect; nearly all actives have a fitted effect of over 55% in size; growth read by luminescence after 48 h
# Lassa entry inh = qHTS for Inhibitors of binding or entry into cells for Lassa Virus. Lassa virus pseudotype entry inhibition, cell reporter; control for the full effect not named in the record. actives 1.2% (n = 300,000). Potency, µM (doses to about 37.9 µM), without a hit: top-dose activity change, negative = inhibition, actives largely listed as inhibitors; active means well fitted inhibition curve with a large enough effect; inconclusive means small, poorly fitted or top-dose-only effect, or effect the other way; inactive means flat fitted curve, though single readings scatter; tested in HEK293 cells; further: on the % scale 0 is the no-effect control and ±100 the full control effect; nearly all actives have a fitted effect of over 50% in size; luciferase read-out
# NS1 function inh = qHTS Assay for Inhibitors of Influenza NS1 Protein Function | actives 0.4% (n = 270,000) | Potency, µM (top dose mostly 46.1 µM), for the others: at the highest dose activity, positive = more growth | S. cerevisiae slowed by influenza A NS1, growth recovery by OD600 | AID 2326, 2010; active means well fitted rising curve with a large enough effect; inconclusive means small, poorly fitted or top-dose-only effect; inactive means no such curve, though single readings can be large or run the other way; further: nearly all actives have a fitted effect of over 50% in size
#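 Read-out: OD600 growth recovery of NS1-expressing budding yeast. Cells grown overnight at 30C in -URA glucose medium, washed, resuspended and diluted 1:100 in 2% galactose assay medium, pH 6.0. Same strain lacking NS1 served as positive control.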
# StopGo reporter = High Throughput Screening for Foot and Mouth Disease Virus Antivirals. human cells with a luciferase reporter of 2A StopGo recoding; control for the full effect not named in the record. Potency, µM (top dose mostly 57.9 µM), without a hit: top-dose signal change, negative = less light. actives 1.2% (n = 410,000); active = well fitted falling curve with a large enough effect; inconclusive = small, poorly fitted or top-dose-only effect; inactive = no such curve, though single readings can be large or run the other way; tested in HEK293T cells; further: on the % scale 0 is the no-effect control and ±100 the full control effect; nearly all actives have a fitted effect of over 45% in size; luciferase light after 4 h
# RE007 growth inh = qHTS Assay for Inhibitors of the HIV-1 protein Vpr | S. pombe RE007 Vpr strain, BacTiter-Glo ATP luminescence, 24 h; control for the full effect not named in the record | Potency, µM (titrated, usually from 92.2 µM), inactives show at the top dose activity change, negative = less growth | actives 0.21% (n = 360,000) | AID 651644, 2012; active = well fitted falling curve with a large enough effect; inconclusive = small, poorly fitted or top-dose-only effect; inactive = no such curve, though single readings can be large or run the other way;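 further: on the % scale 0 is the no-effect control and ±100 the full control effect; nearly all actives have a fitted effect of over 50% in size; the assay follows cell death caused by Vpr and the record does not say whether a fall means rescue or toxicity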
#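 Fission yeast RE007 carrying one integrated HIV-1 vpr copy, seeded at OD 0.01 in PMG+AL medium with 23 nL pinned compound. Grown 24 h at 30 degrees; viability read by BacTiter-Glo luminescence after 5 min.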
# MARV entry inh = qHTS for inhibitors of binding or entry into cells for Marburg Virus | Marburg virus pseudotyped entry inhibition, cell reporter; control for the full effect not named in the record; about a third of the inactives were read at about 46 µM | Potency, µM (doses to about 37.8 µM), inactives show at the top dose activity change, negative = inhibition, actives largely listed as inhibitors | actives 1.8% (n = 300,000) | AID 540276, 2011; active = well fitted inhibition curve with a large enough effect; inconclusive = small, poorly fitted or top-dose-only effect, or effect the other way; inactive = flat fitted curve, though single readings scatter; tested in HEK293 cells; about a fifth of its hits are not listed in these tables; further: on the % scale 0 is the no-effect control and ±100 the full control effect; luciferase read-out
# Cruzain inh Det = qHTS Assay for Promiscuous and Specific Inhibitors of Cruzain (with detergent). AID 1478, 2009. purified cruzain, Z-FR-AMC fluorescence, 0.01% Triton. Potency, µM, for the others: max response, negative = inhibition, actives largely listed as inhibitors. actives 0.43% (n = 200,000). Cruzipain (Trypanosoma cruzi), P25779;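 further: plate controls were neutral wells for no effect and buffer without enzyme for full effect; nearly all actives have a fitted effect of over 40% in size; top concentration of the series not given in the record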
#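 Detergent-containing arm of a paired screen for aggregation-based inhibition: 0.01% Triton X-100 present. Cruzain at 1.5 nM cleaved 2 uM Z-FR-AMC at pH 5.5 with 5 mM DTT; AMC fluorescence gain over 60 s measured activity.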
# An asterisk follows results filed as active; ? = inconclusive; . = not tested or not shown; & = joins results of further samples; [ ] = dose if it differs, or a comment. Unless noted, the call rests on the fitted dose curve; in most records, active means well fitted curve in the direction sought with a large enough effect; inconclusive means small, poorly fitted or top-dose-only effect, or another doubt; inactive means no such curve, though single readings can be large; an effect the other way counts as inactive or inconclusive. Potency means the concentration at half of the fitted maximal effect. Compounds were not picked by outcome; any-hit rate near 4.6%.
SMILES,Cruzain inh noDet,SARS PLpro yeast,Lassa entry inh,NS1 function inh,StopGo reporter,RE007 growth inh,MARV entry inh,Cruzain inh Det
CC1CCc2onc(C(=O)N3CCN(c4ccc(F)cc4)CC3)c2C1 (stereo not drawn),-1%,.,12%[46.1 µM],.,-18%,.,.,0.9%
COc1cc(/C=C/C(=O)OCC(=O)N2CCCc3ccccc32)ccc1OC(F)F,.,4%,?,.,-14%,-7%,19%[46.1 µM],.
Cc1cccc(-n2ncc3c2CCCC3NC(=O)CCc2cccnc2)c1C (stereo not drawn),.,0%,.,-4%,0%,-12%,.,.
COc1ccc(C(CNC(=O)c2ccc3c(c2)OCCO3)N(C)C)cc1 (stereo not drawn),.,2%,28%,5%,17%,-6%,-18%[46.1 µM],.
CCOc1cccc(NC(=O)C(Cc2cccs2)c2nn[nH]n2)c1 (stereo not drawn),0%,0%,12%,-2%,-10%,-8%[3.69 µM],12%,2.4%
Cc1oc2c(c(C)cc3oc(=O)c(CC(=O)NCC(=O)NCC(=O)NCC(C)O)c(C)c32)c1C (stereo not drawn),.,-2%,.,2%,0%,17%,.,.
Cc1noc(NS(=O)(=O)c2ccc(NC(=O)c3nn(-c4ccc(F)cc4)ccc3=O)cc2)c1C,.,1%,-28%[46.1 µM],-27%,-26%,-4%,24%[46.1 µM],.
COc1[nH]c(/N=C/c2ccccc2)c(C#N)c1C#N,5%,9%,-5%,10%,0%,-4%,?,-2.4%
CCOC(=O)c1c(CSc2ccccc2)n(C)c2ccc(O)cc12,.,1%,.,-2%,-23%,-3%,.,.
CS(=O)(=O)Nc1ccc(S(=O)(=O)N2CCOCC2)cc1,9%,-2%,0%,4%,-3%,8%,0%,2.9%
COc1ccc(CCNC(=O)CCCn2c(=O)c3ccccc3n(CC(=O)Nc3ccc(C)cc3Cl)c2=O)cc1OC,?,.,?,.,-26%,.,-14%[46.1 µM],7.0%
CCOc1ccc(/C=C(/NC(=O)c2ccccc2)C(=O)NCCC(=O)O)cc1,.,0%,16%,0%,-21%,1%,-2%[46.1 µM],.
COc1ccc(C(CNC(=O)COc2ccc(C)c(C)c2)N2CCCCC2)cc1 (stereo not drawn),-3%,13%,1%[46.1 µM],-9%,3%&-23%,18%,?,0.3%
Cc1nc(C)c(-c2ccc(SCC(=O)Nc3ccc(F)cc3F)nn2)s1,.,-2%,-10%,-25%,?,-11%,-15%,.
Cc1ccc(-n2[nH]c(C)c(/C=N/NC(=O)c3ccc(O)cc3O)c2=O)cc1,.,0%,.,-8%,18%,-24%,.,.
O=C(C1CCCN(Cc2ccc(Cl)cc2)C1)N1CCCCC1 (stereo not drawn),.,-1%,8%[46.1 µM],0%,-16%,-8%,?,.
O=C(Nc1ccccc1)OCCOc1cccc(Br)c1,.,0%,-10%,-6%,31%[activator],?,-2%,.
COc1ccc(CNC(=O)C2CCCN(S(=O)(=O)c3c(C)nn(C)c3C)C2)cc1 (stereo not drawn),3%,8%,.,-5%,0%,-13%,0%,7.2%
O=C(COc1ccccc1)NC1CCS(=O)(=O)C1 (stereo not drawn),.,1%,7%,5%,-11%,-3%,0%,.
CCOC(=O)c1cc(S(=O)(=O)NCc2ccc(Cl)cc2)[nH]n1,-14%,.,4%[46.1 µM],.,0%,.,.,0.0%
CC(Cc1ccccc1Sc1ccc(O)cc1)N(C)C (stereo not drawn),1%,0%,2%,2%,-10%,-21%,?,-5.0%
O=C(Nc1ccc(F)c(Cl)c1)C1CCN(c2ncnc3c2nc2n3CCCCC2)CC1,.,-4%,-23%[46.1 µM],5%,?,11%,13%[46.1 µM],.
CCOc1cc(/C=N/NC(=O)COc2ccc(Cl)cc2)ccc1OS(=O)(=O)c1ccccc1,?,22%,?,2µM*,-24%,7%,6.5µM*,1.3%
Cc1ccc(NC(=O)Cn2ncn3c(cc4ccccc43)c2=O)cc1F,-7%,.,-14%&-9%[46.1 µM],7%,-13%&-24%,-2%,?,-6.8%
Cc1cc(-c2ccc(S(=O)(=O)N3CCN(c4cccc(C)c4C)CC3)s2)on1,.,9%,.,5%,?,-17%,.,.
CCOC(=O)c1[nH]c2ccccc2c1NC(=S)Nc1cccc(C)c1C,7%,-4%,20%,8%,23%,4%,25%,-4.7%
Cc1ccc2cc(COC(=O)c3cccc([N+](=O)[O-])c3)c(=O)[nH]c2c1,.,0%,.,0%,-15%,-7%,.,.
CCOC(=O)c1cc(-c2ccccc2)n(CCC(=O)NC(C)CC)c1C (stereo not drawn),?,-17%,11%,-13%,11%,16%,-14%,-5.4%
COc1ccc(-n2c(-c3ccc(Br)cc3)c[n+]3c2SC(C)C3)cc1 (stereo not drawn),.,3%,?,.,?,-11%,?,.
COc1ccc(CNC(=O)C/C(C)=N/NC(=O)COc2cccc(C)c2)cc1,.,-2%,-24%,.,15%,-7%,16%[46.1 µM],.
O=C(NNC(=S)NCC1CCCO1)c1ccc(S(=O)(=O)N2CCOCC2)cc1 (stereo not drawn),.,0%,0%,-1%,12%,0%,-19%[46.1 µM],.
COc1ccc(N(CC(=O)O)S(=O)(=O)c2c(C)n[nH]c2C)cc1,-8%,6%,-1%,6%,-5%,-13%,3%,2.4%
Cc1nc(NS(=O)(=O)c2ccccc2)sc1NC(=O)Nc1ccccc1,.,0%,4%[46.1 µM],8%,18%,-1%,1%[46.1 µM],.
CCN(CC)c1ccc(/C=C/C(=O)c2ccc(Br)cc2)cc1,11%,-18%,2%,0%,5%,2%,23%,-6.5%
Cc1ccc(NC(=O)C2CCN(S(=O)(=O)c3cccc4nonc34)CC2)c(Cl)c1,-16%,.,?,.,-7%,.,-3%[46.1 µM],-2.3%
CCn1nc(CC(C)C)cc1C(=O)N1CCCC(Nc2ccc(OC)cc2)C1 (stereo not drawn),.,-5%,.,?,-22%,0%,.,.
COc1ccc(S(=O)(=O)N(C)c2ccc(C(=O)Nc3ccccc3C(=O)N3CCOCC3)cc2)cc1OC,.,-4%,6%,-11%,-18%,12%,-19%,.
COc1ccc(-c2[nH]ncc2CN2CCC(OCc3cccnc3)CC2)c(F)c1,.,0%,?,1%,-7%,-5%,?,.
Fc1ccc(Oc2nccc(-c3ccc(Cl)cc3)n2)cc1,3%,-2%,?,-3%,6%,-8%,21%[46.1 µM],-0.4%
COc1ccccc1N1CCN(C(=O)CCNS(=O)(=O)c2ccc(Br)s2)CC1,?,18%,-26%,-71%,-22%,2%,?,5.3%

# Only Cruzain inh Det, Lassa entry inh and Cruzain inh noDet, for 4 of the compounds above:
SMILES,Cruzain inh Det,Lassa entry inh,Cruzain inh noDet
CCOC(=O)c1cc(-c2ccccc2)n(CCC(=O)NC(C)CC)c1C (stereo not drawn),-5.4%,11%,?
COc1ccc(-n2c(-c3ccc(Br)cc3)c[n+]3c2SC(C)C3)cc1 (stereo not drawn),.,?,.
COc1ccc(CNC(=O)C/C(C)=N/NC(=O)COc2cccc(C)c2)cc1,.,-24%,.
O=C(NNC(=S)NCC1CCCO1)c1ccc(S(=O)(=O)N2CCOCC2)cc1 (stereo not drawn),.,0%,.

# New compounds follow
SMILES,Cruzain inh noDet,SARS PLpro yeast,Lassa entry inh,NS1 function inh,StopGo reporter,RE007 growth inh,MARV entry inh,Cruzain inh Det
Cc1cc(C)n(-c2ccc(C(=O)OCc3ccccc3)cc2)n1,5%,8%,7%,-3%,28%,-11%,-1%,0.7%
CC(=O)NC(Cc1cnc[nH]1)C(=O)O (stereo not drawn),3%,4%,8%,?,10%,7%,14%,2.1%
O=C(O)CN(CCOCCOCCN(CC(=O)O)CC(=O)O)CC(=O)O,3%,.,?,-4%,.,.,?,5.1%
Nc1c(-c2ccccc2)cnc2c(-c3ccccc3)cnn12,.,-1%,.,-7%,-7%,-1%,.,.
COc1cccc(CN2CCN(Cc3ccc(C#CC(C)(C)O)s3)CC2CCO)c1 (stereo not drawn),.,-1%,-15%,-2%,-25%,1%,-9%[46.1 µM],.
Nc1nonc1C(=O)N/N=C/c1cccc([N+](=O)[O-])c1,-4%,2%,?,-11%,72%[activator],-1%,6%,-2.3%
COC(=O)C(C)Oc1ccc(=O)[nH]n1 (stereo not drawn),6%,1%,1%,5%,-4%,17%,-1%,1.3%
COc1ccc(Cl)cc1C(=O)NCCCN1CCOCC1,.,-3%,25%,8%,4%,4%,-1%,.
Cc1ccc(S(=O)(=O)N2CCN(C(=O)CCN3C(=O)c4ccccc4C3=O)CC2)cc1C,1%,-11%,-12%,-15%,-27%,-5%,?,-1.4%
CC(=O)N1CCc2cc(S(=O)(=O)NC(Cc3ccccc3)C(=O)Nc3cc(C)cc(C)c3)ccc21 (stereo not drawn),-14%,.,-11%[46.1 µM],.,1%,.,-14%[46.1 µM],-3.4%
COc1ccc(C(C)(C)C)cc1S(=O)(=O)NCC1CCCO1 (stereo not drawn),.,.,-3%[46.1 µM],.,49%[activator],-11%,3%[46.1 µM],.
COc1ccc(/C=C/C(=O)N2CCC(c3nc4ccccc4o3)CC2)cc1,-6%,.,12%[46.1 µM],.,2%,.,4%[46.1 µM],-8.4%
O=C(CSc1cccc2cccnc12)N/N=C/c1cccc(O)c1,.,2%,.,3%,-20%,-11%,.,.

# High-throughput results as filed in PubChem BioAssay.
